Bioassay records deposited in PubChem by Johns Hopkins Ion Channel Center.
KCNQ2 pot = potentiators of rat KCNQ2 potassium channel; AID 2239, 2010; hit rate 0.54% among 310,000; Potassium voltage-gated channel subfamily KQT member 2 (Rattus norvegicus), O88943; B-score at 10 µM; CHO-K1 KCNQ2, FluxOR thallium flux fluorescence; active compounds read high;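 active = fluorescence ratio B-score at least 3 SD of library B-scores, with initial fluorescence B-score within 3 SD, cut at about 5.3 in these data; same plate scores as AID 2156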;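 also: B-score of peak minus minimum over baseline fluorescence ratio after K+ and Tl+ stimulus; positive B-score means potentiation of KCNQ2 with more thallium influx and brighter signal; only the inactives scoring about 0 or higher are listed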
Target sequence (O88943 whole entry, looked up): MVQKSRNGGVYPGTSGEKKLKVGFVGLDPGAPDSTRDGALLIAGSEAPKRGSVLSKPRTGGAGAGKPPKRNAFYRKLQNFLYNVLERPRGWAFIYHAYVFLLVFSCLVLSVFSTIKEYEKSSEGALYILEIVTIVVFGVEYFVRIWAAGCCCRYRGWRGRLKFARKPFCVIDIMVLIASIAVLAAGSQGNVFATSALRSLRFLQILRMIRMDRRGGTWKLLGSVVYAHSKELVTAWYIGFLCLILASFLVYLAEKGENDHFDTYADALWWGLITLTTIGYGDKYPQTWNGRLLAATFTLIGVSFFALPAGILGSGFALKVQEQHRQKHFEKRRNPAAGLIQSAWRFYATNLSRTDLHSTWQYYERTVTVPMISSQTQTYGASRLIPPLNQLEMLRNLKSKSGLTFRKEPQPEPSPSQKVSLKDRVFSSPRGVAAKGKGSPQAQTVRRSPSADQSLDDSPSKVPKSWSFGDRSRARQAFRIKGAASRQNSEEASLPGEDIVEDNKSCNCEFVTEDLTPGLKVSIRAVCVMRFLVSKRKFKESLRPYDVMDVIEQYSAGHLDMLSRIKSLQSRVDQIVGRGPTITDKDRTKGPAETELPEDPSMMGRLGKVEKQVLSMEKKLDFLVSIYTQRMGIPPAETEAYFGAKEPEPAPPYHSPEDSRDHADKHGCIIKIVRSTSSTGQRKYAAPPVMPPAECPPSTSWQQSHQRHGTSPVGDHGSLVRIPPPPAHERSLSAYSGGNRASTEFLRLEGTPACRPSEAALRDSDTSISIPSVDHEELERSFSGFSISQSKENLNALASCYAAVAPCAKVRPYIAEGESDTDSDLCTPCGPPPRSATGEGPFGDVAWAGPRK
KCNQ2 pot baseline = also measured in KCNQ2 pot; calls as there; B-score; compound at 10 µM; measured here: initial fluorescence intensity artifact check;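 brightness before thallium and not channel activity; 0 = typical well and far values either way flag optical interference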
The depositor's hits bear a star. Some of the compounds tested; rates above refer to the full screens.

SMILES	KCNQ2 pot	KCNQ2 pot baseline
C=CCn1c(-c2cc3cccc(OC)c3o2)n[nH]c1=S	1.8	0
S=c1[nH]nc(-c2ccccc2)n1/N=C/c1cccc(Br)c1	2.4	-0.47
COc1ccc(NC(=O)c2cc([N+](=O)[O-])ccc2N2CCCCC2)cc1	0.34	0.12
CCCCCCn1cc(C(=O)O)c(=O)c2cc(F)c(N3CCN(C)CC3)cc21	0.59	0.72
CCCn1c(=S)[nH]c2cc(C(=O)N3CCN(c4ccccc4OC)CC3)ccc2c1=O	0.3	0.03
CC(NC(=O)c1ccc(F)cc1)c1ccccc1 (stereo not given)	2.6	-1.1
COc1ccc(CCNC(=O)C/C(C)=N/NC(=O)c2ccc([N+](=O)[O-])cc2Cl)cc1OC	0.22	-1.2
CC(=O)NS(=O)(=O)c1ccc(NC(=O)CCC(=O)Oc2ccc(C)cc2)cc1	0.06	2.1
CCC(CO)NC(=O)c1cc2c(s1)CCC2 (stereo not given)	0.3	0.1
CC1(C)N=C(c2cccc(F)c2)C(=O)N1	0.76	0.73
O=c1oc2cc(OCc3nn[nH]n3)ccc2c2c1CCCC2	0.05	1.2
CCOC(=O)c1sc(NC(=O)CCCn2nc([N+](=O)[O-])cc2C)c(C(=O)OCC)c1C	0.52	-1.6
O=C(Nc1nc2c(Br)cc(Br)cc2c(=O)s1)C1CCC1	4	0.61
Cn1c(=O)c2[nH]c(NCC3CCCO3)nc2n(-c2ccccc2)c1=O (stereo not given)	2.1	1.3
Cc1c(OCC(=O)NCCN2CCOCC2)ccc2c3c(c(=O)oc12)CCC3	1.8	-1.3
Cc1cc(OCc2n[nH]c(=S)n2-c2ccccc2)ccc1Cl	2.1	-1.1
CC1CCCN(C(=O)c2ccc(NS(=O)(=O)c3ccc4[nH]c(=O)[nH]c4c3)cc2)C1 (stereo not given)	1.4	-1.1
O=c1[nH]c(=O)n(Cc2ccccc2)c2c1CCC2	1.2	0.13
CC(OC(=O)Cc1c[nH]c2ccccc12)C(=O)Nc1ccccc1F (stereo not given)	1.1	-0.12
CCCNC(=O)C1CCN(c2cc(-c3ccccc3)nc3ncnn23)CC1	0.46	0.02

3 compounds out of the list, arranged by number of heavy atoms, smallest number first:
SMILES	KCNQ2 pot	KCNQ2 pot baseline
O=C(Nc1nc2c(Br)cc(Br)cc2c(=O)s1)C1CCC1	4	0.61
CC(OC(=O)Cc1c[nH]c2ccccc12)C(=O)Nc1ccccc1F (stereo not given)	1.1	-0.12
CCCn1c(=S)[nH]c2cc(C(=O)N3CCN(c4ccccc4OC)CC3)ccc2c1=O	0.3	0.03

(more compounds)
SMILES	KCNQ2 pot	KCNQ2 pot baseline
CCn1cc(C(=O)NCCC(=O)NCCCO)c(=O)c2cc3c(cc21)OCO3	0.63	-0.42
CNC(=S)N/N=C/c1ccc(C(C)C)cc1	0.81	-0.2
Cc1cccc(N2CCN(C(=O)C3CCC(CNS(=O)(=O)c4cccs4)CC3)CC2)c1C (stereo not given)	0.34	0.53
CC1(C)Oc2ccccc2OC1(O)c1ccc2ccccc2n1 (stereo not given)	0.39	-0.98
CCn1cc(/C=C/C(=O)NCc2c(C)nn(C)c2C)cn1	1.1	2.8
COc1ccc(-c2cn3cccnc3n2)cc1NC(=O)c1cccs1	0.95	-0.28
Cc1onc(-c2ccccc2Cl)c1C(=O)N/N=C(\N)COc1ccc(Cl)cc1	0.73	0.06
O=C(Cc1cccs1)Nc1nnc(C2CC2)s1	1.3	1.4
CCC(C)/C(C)=N/NC(=O)CSc1nc2ccccc2[nH]1 (stereo not given)	1.6	-1.2
Cc1ccc(C(=O)NCCCNC(=O)c2ccco2)cc1C	0.14	-0.81
CCN1C(=O)CC(N2CCN(c3ccc(C(=O)c4ccccc4)cc3)CC2)C1=O (stereo not given)	0.08	0.35
CC(C)Cc1nnc(NC(=O)c2ccc3c(=O)n4c(nc3c2)CCC4)s1	0.36	1.2
CCOC(=O)C(OC(=O)c1sc(=S)n(C)c1C)C(C)=O (stereo not given)	0.41	0.86
O=[N+]([O-])C1=C(Nc2cccc3ccccc23)CS(=O)(=O)C1	1.2	-0.64
O=C(N/N=C/c1cccc(C(F)(F)F)c1)c1cc2c(s1)-c1ccccc1CC2	1.4	-1.7
CC(=O)N1c2ccc(S(=O)(=O)N3CCCC(C(=O)N4CCCC(C)C4)C3)cc2CC1C (stereo not given)	1	0.35
CCc1cc(=O)oc2c3c(cc(OCC(=O)NCCN4CCOCC4)c12)OC(C)(C)CC3	0.16	-0.04
Cc1cccc(-c2nc(CS(=O)CC(=O)N3CCN(C)CC3)c(C)o2)c1 (stereo not given)	0.42	0.76
CCOc1cc(/C=N/NC(=O)C(=O)NCC2CCCO2)ccc1OCC(=O)N1CCOCC1 (stereo not given)	0.27	1.4
CCOC(=O)C1=C(C)NC(=O)NC1c1ccc(-c2ccc(F)cc2)o1 (stereo not given)	0.82	-2.5
O=C(NC(=S)Nc1ccccc1N1CCCC1)c1cccs1	1.4	1.2
CC(=O)Nc1ccc(NC(=O)[C@@H](NC(=O)c2ccccc2F)C(C)C)cc1	0.79	0.98
CN(C)CCCNc1oc(/C=C/c2ccccc2)nc1C#N	1.1	1.3
CC(OC(=O)C1CC(O)CN1S(=O)(=O)c1ccccc1[N+](=O)[O-])C(=O)N1CCCCC1 (stereo not given)	0.21	-0.65
O=C(CSc1nc2ccccc2c(=O)n1-c1ccc(F)cc1F)Nc1ccc(N2CCOCC2)cc1	0.04	0.13
CCCCCCSc1ccc(-c2nc3ccc(C)cn3c2NCc2ccccc2)cc1OC	0.69	-0.87
COC(=O)c1cccc(N2C(=O)c3cccnc3C2=O)c1	0.45	-1
CCOc1cc(CN2CCCC(CO)(Cc3ccc(F)cc3F)C2)ccc1OC (stereo not given)	0.38	0.25
Cn1nnnc1SCC(=O)Nc1cc(S(=O)(=O)N2CCCC2)ccc1Cl	1.4	-0.86
Cc1cccc(C)c1NC(=O)COC(=O)c1cc[n+]([O-])cc1	0.26	0.41
Cc1ccc(S(=O)(=O)n2nc(C)c(Br)c2C)c(C)c1C	0.4	1.9
COCCN(C(=O)COC(=O)/C=C/c1ccccc1Cl)c1c(N)n(Cc2ccccc2)c(=O)[nH]c1=O	0.27	1.6
O=C(CC1NCCNC1=O)Nc1ccc(Oc2ccccc2)cc1 (stereo not given)	0.1	-1.5
C=C(C)c1cccc(C(C)(C)NC(=O)Nc2ccc(Cl)cn2)c1	1.2	1.6
N#Cc1c(/N=C/c2ccc(-c3ccccc3C(=O)O)o2)sc2c1CCCC2	1	0.01
COc1cccc(S(=O)(=O)NCc2ccc(C(=O)NCC3CCCO3)cc2)c1 (stereo not given)	0.25	1.1
COc1cc(C(=O)NCc2nnc(SCC(=O)N3CCOCC3)o2)cc(OC)c1OC	0.49	0.46
CCN1CCn2c1nc(N1CCOCC1)nc2=O	0.38	-1.6
CCOC(=O)NC1(C(F)(F)F)NC(=O)N(c2ccc(F)cc2)C1=O (stereo not given)	0.05	0.24
CCOC(=O)/C=C/C(=O)Nc1cccc([N+](=O)[O-])c1	1.3	-0.22
O=S(=O)(c1ccc(N2CCCC2c2nc3ccccc3s2)nc1)N1CCOCC1 (stereo not given)	0.28	-0.01
Cc1ccc(-c2nc(=O)[nH]c3ccccc23)cc1	0.13	-0.04
Cc1ccccc1OCC(=O)N1CCCCCCC1	0.01	1.4
CC(C)(C)c1ccc(/C=N/NC(=O)C[n+]2ccccc2)cc1	0.3	1
O=C(N/N=C/c1ccc(-c2ccc(S(=O)(=O)Nc3ncccn3)cc2)o1)c1cc2ccccc2cc1O	5.5*	-2.6*
CCN(CC)C(=O)COc1ccc(/C=C(\C#N)S(=O)(=O)c2ccccc2)cc1OC	0.96	0.3
COc1ccc2[nH]c(C(=O)Nc3ncc(C)cc3Br)cc2c1	0.42	-0.95
O=C(CN(Cc1ccco1)C(=O)Cn1nnc(-c2cccs2)n1)NCC1CCCO1 (stereo not given)	1.3	-1.7
O=C(O)CNC(=O)c1ccc2c(c1)OCCO2	0.38	0.25
COc1ccc(S(=O)(=O)NCc2ccncc2)cc1NC(=O)c1ccc(Cl)cc1	2.9	0.63
Cc1ccc(/C=N/NC(=O)c2cc(-c3cccnc3)nc3ccccc23)cc1	0.71	-0.48
COc1cc(NC(=O)c2cc(-c3cccnc3)nc3ccc(C)cc23)c(OC)cc1Cl	0.1	0.2
CCNC(=S)NNC(=O)c1ccc(=O)n(Cc2ccccc2)c1	1.9	-0.14
COC(=O)c1ccc(C(NC(=O)c2cccnc2)NC(=O)c2cccnc2)cc1	0.54	0.02
C/C(=N\N=C(N)N)c1cc(Cl)ccc1Cl	0.57	1.2
CCOc1ccc(S(=O)(=O)NCc2ccccc2)cc1C(N)=O	0.94	-0.38
CC1CCN(C(=O)C2CCN(S(=O)(=O)c3cccc4nonc34)CC2)CC1	0.46	0.72
CCC(=O)Nc1c(OC(=O)CC)ccc2c(C)cc(=O)oc12	1.6	-0.82
CC(=O)c1ccc(NC(=O)C2CC2c2ccccc2)cc1 (stereo not given)	1.5	-0.5
O=C(Nc1ccc(S(=O)(=O)N2CCCC2)cc1)c1ccc(Cl)nc1	2.1	-0.32

Structural class, the compounds so far containing two or more sulfur atoms
SMILES	KCNQ2 pot	KCNQ2 pot baseline
Cc1cccc(N2CCN(C(=O)C3CCC(CNS(=O)(=O)c4cccs4)CC3)CC2)c1C (stereo not given)	0.34	0.53
O=C(Cc1cccs1)Nc1nnc(C2CC2)s1	1.3	1.4
CCOC(=O)C(OC(=O)c1sc(=S)n(C)c1C)C(C)=O (stereo not given)	0.41	0.86
O=C(NC(=S)Nc1ccccc1N1CCCC1)c1cccs1	1.4	1.2
Cn1nnnc1SCC(=O)Nc1cc(S(=O)(=O)N2CCCC2)ccc1Cl	1.4	-0.86
O=S(=O)(c1ccc(N2CCCC2c2nc3ccccc3s2)nc1)N1CCOCC1 (stereo not given)	0.28	-0.01

Of the compounds above, 3 contain a COOH group:
SMILES	KCNQ2 pot	KCNQ2 pot baseline
CCCCCCn1cc(C(=O)O)c(=O)c2cc(F)c(N3CCN(C)CC3)cc21	0.59	0.72
N#Cc1c(/N=C/c2ccc(-c3ccccc3C(=O)O)o2)sc2c1CCCC2	1	0.01
O=C(O)CNC(=O)c1ccc2c(c1)OCCO2	0.38	0.25

Additional structures
SMILES	KCNQ2 pot	KCNQ2 pot baseline
CCOC(=O)C1=C(C)NC(=O)C(C#N)C1c1ccco1 (stereo not given)	0.51	0.77
C/C(=N\NC(=O)Cc1c(C)[nH][nH]c1=O)c1ccc2ccccc2c1	1.2	-1.2
Cc1cccc(OCC(=O)NNC(=O)CSc2ncc(C#N)c(N)n2)c1	0.26	-0.31
COc1ccc(CN2CCN(Cc3ccc(CO)o3)CC2CCO)cc1C (stereo not given)	0.17	-1.7
CSc1nsc2nc(=O)c(/C=C3\C(C)=Nc4ccccc43)c(N)n12	0.92	1.1
COc1cccc(/C=N/NC(=O)c2cc3c(OC)c(OC)ccc3[nH]2)c1OC	0.47	-1.4
COC(=O)Nc1ccc(S(=O)(=O)N(CCO)CC(F)(F)C(F)F)cc1	1.9	-0.95
Cc1cc(O)c(NC(=O)c2ccc(Br)o2)cc1C	0.02	-1.4
COC(=O)C1=C(C)N(C)C(=O)/C1=C\c1cccs1	1.9	-1.7
CC(C)(SC(=S)N1CCOCC1)C(=O)O	0.36	-0.78
CC(=O)c1cc(-c2ccccc2)n(CC(=O)NC2CCCC2)c1C	0.45	-0.92
COc1cccc(N=C2SC(C(=O)Nc3ccc(F)cc3)CC(=O)N2C)c1 (stereo not given)	0.82	-0.67
O=C(NNc1ccc([N+](=O)[O-])cc1)C1CC2CCCC(C1)C2=O (stereo not given)	0.7	1.7
Cc1cc(C)c2[nH]c(=S)cc(C)c2c1	1.4	-0.88
C=CCOC(=O)C(=O)/C=C/c1c(C)n(C)n(-c2ccccc2)c1=O	0.16	0.1
CC(C)(C)c1ccc(S(=O)(=O)Nc2cccnc2)cc1	0.7	2.8
CCOc1ccc(N2C(=O)CC(N(CCc3ccc(S(N)(=O)=O)cc3)C(C)=O)C2=O)cc1 (stereo not given)	0.17	-1.1
COc1cc(NC2c3ccccc3C(=O)N2Cc2ccccc2Cl)cc(OC)c1OC (stereo not given)	2	-0.11
Cc1cc2nc(C)n(CCCNC(=O)Nc3ccccc3)c2cc1C	0.83	-1.3
O=C(OCCCOC(=O)c1cc[n+]([O-])cc1)c1cc[n+]([O-])cc1	1	-0.83
O=C(Nc1cccc(Cl)c1)OCc1cn(-c2ccccc2)nn1	1.3	-0.16
Cc1c(N2C(=O)C(=O)/C(=C(/O)c3ccc(Br)cc3)C2c2cccnc2)c(=O)n(-c2ccccc2)n1C (stereo not given)	0.84	-1
O=C(NC(=S)Nn1cnnc1)c1ccccc1Br	0.89	0.28
Cc1cc(C)c(C(N)=O)c(SCC(=O)c2cc(C)c(C)cc2C)n1	1.2	0.6
Cc1cc(CN2CCCCC2)oc1C(=O)O	0.11	-0.23
Cc1noc(C)c1COC(=O)c1ccc2ccccc2n1	2.2	-2.1
Cc1cccc(NC(=O)c2csnn2)n1	0.2	1.2
Cc1cccc(CC(=O)Nc2c3c(nn2-c2cccc(Cl)c2)CS(=O)C3)c1 (stereo not given)	2.9	-0.01
COc1c(OC(C)=O)ccc(/C=C/c2ccc3cccc(OC)c3n2)c1[N+](=O)[O-]	0.08	0.6
Cc1ccc2nc(NC(=O)CSc3ncnc4c3oc3ccccc34)sc2c1	1.6	2.7
COc1cc(C2C(C(=O)N3CCOCC3)=C(C)NC3=C2C(=O)CCC3)ccc1OC(C)=O (stereo not given)	0.68	-0.23
Cn1c(=NC(=O)CN2C(=O)C3CC=CCC3C2=O)sc2ccccc21 (stereo not given)	0.09	0.04
